# Bioassay records as filed in PubChem BioAssay.
# gsp antag = qHTS for Antagonists of gsp, the Etiologic Mutation Responsible for Fibrous Dysplasia/McCune-Albright Syndrome: qHTS; AID 624288, 2012; actives 0.4% (n = 340,000); gsp-mutant cells, cAMP HTRF, 30 min; control for the full effect not named in the record; Potency, µM (doses to about 76.9 µM), without a hit: at the top dose activity change, negative = inhibition, usual class: inhibitors; active = falling curve of any shape with a large fitted effect; inconclusive = falling curve, mostly with a smaller effect; inactive = flat or rising curve; cell line not stated here;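 note: intracellular cAMP measured with PDE inhibitor Ro 20-1724 present during compound exposure; potency is the fitted concentration of half-maximal effect; % is set by controls: 0 for no effect and ±100 for the full control effect; nearly all actives have a fitted effect of over 65% in size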
#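 Cells, 2000/well, grown 16–24 h in DMEM 10% FBS with 0.5 mg/ml G418, then compounds plus […] (300 uM addition stock), 30 min at 37C. cAMP read by HTRF (cAMP-d2 and anti-cAMP antibody-K in lysis buffer) after 30 min RT.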
# gsp agonist = qHTS for Agonist of gsp, the Etiologic Mutation Responsible for Fibrous Dysplasia/McCune-Albright Syndrome: qHTS; actives 0.13% (n = 340,000); gsp mutant cells, cAMP HTRF, 30 min; control for the full effect not named in the record; AID 624287, 2012; Potency, µM (top dose mostly 76.9 µM), for inactives: at the top dose activation (cAMP increase), hits mostly activators; active = well fitted activation curve with a large enough effect; inconclusive = small, poorly fitted or top-dose-only effect, or another doubt; inactive = no such curve, though single readings can be large or run the other way; cell line not stated here;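 note: phosphodiesterase inhibitor Ro 20-1724 added with compounds to block cAMP breakdown; potency is the fitted concentration of half-maximal effect; nearly all actives have a fitted effect of over 60% in size; about a fifth of the inactives were tested at one dose only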
#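 Cells in DMEM/10% FBS with G418 were pretreated with compounds in DMSO plus […] (300 uM stock) for 30 min at 37C. cAMP was measured by HTRF (cAMP-d2 plus anti-cAMP antibody-K) after 30 min at room temperature.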
# D2 potentiator = Beta-Arrestin HTS for Positive Allosteric Modulators of the Human D2 Dopamine Receptor: Potentiators | D(2) dopamine receptor (Homo sapiens), P14416 | DiscoveRx D2 beta-arrestin cells, luminescence, 90 min; 100% = 57 uM dopamine signal | potentiation, % (test concentration not listed) | actives 0.23% (n = 360,000) | AID 624464, 2012; active = potentiation of 50% or more; inconclusive = 30% to 50%; inactive = 30% or less;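 note: compound concentration not given in the record; tested on top of an EC20 dose of dopamine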
#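 PathHunter beta-arrestin assay in DiscoveRx D2 cells. Compounds were added with an EC20 of dopamine (50 nM final) for 90 min at 37 deg C. Luminescence was read 1 h after detection reagent, with 57 uM dopamine as the EC100 control.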
# D2 agonist = Beta-Arrestin HTS for Positive Allosteric Modulators of the Human D2 Dopamine Receptor: Agonists. D(2) dopamine receptor (Homo sapiens), P14416. DiscoveRx PathHunter D2 beta-arrestin, luminescence, 90 min; 100% = 57 uM dopamine signal. activation, % (no concentration beside the values). actives 0.084% (n = 360,000). AID 624465, 2012; in the data active = activation above about 40%; inconclusive = about 15% to 40%; inactive = below about 15%; note: compound concentration not given in the record; the text of the record calls up to 30% inactive
#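 Agonist mode: compounds alone added to overnight-plated D2 PathHunter cells for 90 min at 37 C, with 57 uM final dopamine (EC100) defining full response. Beta-arrestin recruitment detected by chemiluminescent reagent, read after 1 h at ambient temperature.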
# CtBP-E1A inh = qHTS Assay for Inhibitors of the CtBP/E1A Interaction; CtBP / adenovirus E1A interaction (AlphaScreen); AlphaScreen GST-E1A/His-CtBP binding, 1536-well; stronger effect = lower value; control for the full effect not named in the record; activity change, % (concentration not given with the values); actives 0.49% (n = 340,000); in the data active means activity change below about -65%; inconclusive means about -30% to -65%; inactive means above about -30%; note: % is set by controls: 0 for no effect and ±100 for the full control effect
#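 In 5 uL wells, 23 nL compound meets equimolar GST-E1A and His-CtBP (5X stock 125 nM each) for 2 h, 37 °C. Beads (5X, 50 ug/mL) then 1 h, 37 °C, dark.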
# Six1-Eya2 blk = qHTS Assay for Inhibitors of the Six1/Eya2 Interaction; Homeobox protein SIX1 (Homo sapiens) + Protein phosphatase EYA2 (Homo sapiens), …; AlphaScreen GST-Six1/His-Eya2 binding, biochemical; stronger effect = lower value; control for the full effect not named in the record; activity change, % (concentration not given with the values); actives 0.56% (n = 360,000); in the data active = activity change below about -65%; inconclusive = about -30% to -65%; inactive = above about -30%; note: % is set by controls: 0 for no effect and ±100 for the full control effect
# Target sequence (O00167 whole entry, looked up): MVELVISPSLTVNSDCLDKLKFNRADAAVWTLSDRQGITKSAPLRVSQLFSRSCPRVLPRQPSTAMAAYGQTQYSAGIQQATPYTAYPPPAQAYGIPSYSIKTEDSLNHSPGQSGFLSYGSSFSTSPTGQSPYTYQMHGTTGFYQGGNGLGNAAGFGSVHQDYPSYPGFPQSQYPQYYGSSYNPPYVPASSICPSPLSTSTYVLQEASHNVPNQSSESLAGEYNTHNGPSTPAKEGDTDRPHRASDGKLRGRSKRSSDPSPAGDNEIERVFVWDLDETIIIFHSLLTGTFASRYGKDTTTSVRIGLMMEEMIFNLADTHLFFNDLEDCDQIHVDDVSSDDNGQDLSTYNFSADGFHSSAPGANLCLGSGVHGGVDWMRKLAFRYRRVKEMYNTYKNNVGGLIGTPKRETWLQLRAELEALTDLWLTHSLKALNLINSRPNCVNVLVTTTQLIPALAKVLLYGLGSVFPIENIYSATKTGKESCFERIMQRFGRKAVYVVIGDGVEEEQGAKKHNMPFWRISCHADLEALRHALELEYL
# Target sequence (Q15475 whole entry, looked up): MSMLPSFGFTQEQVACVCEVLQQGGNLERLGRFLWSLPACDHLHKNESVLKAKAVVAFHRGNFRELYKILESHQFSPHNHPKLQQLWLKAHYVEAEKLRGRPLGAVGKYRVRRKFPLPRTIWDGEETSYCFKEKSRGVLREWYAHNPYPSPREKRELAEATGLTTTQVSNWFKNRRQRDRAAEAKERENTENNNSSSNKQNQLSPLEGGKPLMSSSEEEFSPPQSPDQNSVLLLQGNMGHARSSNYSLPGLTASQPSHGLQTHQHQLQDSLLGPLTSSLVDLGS
#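 AlphaScreen luminescence read after one hour at 37 °C in darkness. Pin-transferred compounds met GST-Six1 and His-Eya2 protein (5X stock 250 nM/500 nM) plus glutathione donor and Ni-chelate acceptor beads (5X, 50 ug/mL).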
# * marks the source's active call; other numbers are inactive results; ? = inconclusive; nt = not tested or not shown; [ ] = another dose, or the depositor's remark. This is a random part of the collection. About 1.4% of those tested had a hit in this group.
SMILES,gsp antag,gsp agonist,D2 potentiator,D2 agonist,CtBP-E1A inh,Six1-Eya2 blk
O=C(Cn1[nH]c(=O)c2ccccc2c1=O)Nc1ccc(-c2nnc3n2CCCCC3)cc1,7%,4%,-5,0.9,-9,-3
O=S(=O)(c1cccc(NC(=S)NCc2ccco2)c1)N1CCOCC1,?,-5%,-14,1.3,-5,-5
COC(=O)c1c(NC(=O)CCc2ccc(C)o2)sc(C)c1C,-1%,-17%,-13,-2.0,0,-5
CC(C)(CN1CCOCC1)NS(=O)(=O)c1ccccc1,-6%,-2%[15.4 µM],5,-3.0,-1,-16
O=C(Nc1ccc(F)c(Cl)c1)C1Cc2c(-c3cccc(F)c3)ccnc2O1 (centres undefined),nt,nt,-2,13,4,1
Cc1c(C)c2c(OCC(=O)NCC(O)c3ccccc3)cc3c(c2oc1=O)CCC(C)(C)O3 (centres undefined),-6%,nt,10,4.4,7,6
CCCn1c(CCNc2nc(-c3ccc(Cl)c([N+](=O)[O-])c3)cs2)nc2cc(Cl)c(Cl)cc21,-6%,nt,-12,1.8,4,-5
Cc1ccc(C)c(CN2CCC(CNC(=O)Nc3ccc(Br)cc3F)CC2)c1,9%,?,-30,0.7,-4,-2
O=C(c1cccc(F)c1)N1CCCC(C(=O)N2CCN(c3ccccc3)CC2)C1 (centres undefined),4%,-4%[15.4 µM],-2,-0.6,-8,-2
COc1ccc(NC(=O)c2ccccc2NC(=O)c2cccs2)cc1,-5%,-7%,-2,-0.2,16,1
O=C(/C=C/c1ccc(Cl)cc1Cl)c1cccnc1,6%,0%,-11,1.0,-2,11
O=S(=O)(Nc1ccc(NS(=O)(=O)c2ccccc2)c2ccccc12)c1ccccc1,nt,-27%,3,?,1,-11
Oc1ccc(C=Nc2cccc3ccccc23)c(O)c1,-2%,-23%,5,2.4,-14,-7
CC1CN(c2ccc(Oc3ccccc3)cc2)c2nc3c(c(=O)n(CC(N)=O)c(=O)n3C)n2C1 (centres undefined),?,-17%,-4,-1.1,0,-2
COc1cccc(NC(=O)CCS(=O)(=O)c2ccc(Br)cc2)c1,6%,-4%,-8,-1.7,nt,3
Cc1ccccc1NC(=O)C(=O)NCC1CCCN1S(=O)(=O)c1cccs1 (centres undefined),10%,-5%,2,-3.9,0,2
Cc1ccc2c(c1)cc(CN(Cc1ccc3c(c1)OCO3)S(=O)(=O)c1ccccc1)c1nnnn12,-8%,28%,6,0.2,5,5
CCCOc1ccc(F)cc1-c1cc(C(=O)NCc2cccs2)[nH]n1,nt,nt,-11,-7.8,-4,-13
COc1ccc(C(N)c2csc(Nc3ccc(C(=O)NCCCO)cn3)n2)cc1 (centres undefined),nt,nt,-7,-1.1,-79*,-76*
CC(C)(CO)NC(=O)C12CC3CC(CC(Br)(C3)C1)C2,-8%,-1%[15.4 µM],-6,-2.1,-8,-6
CCOC(=O)C1(CC2CCCCO2)CCN(S(=O)(=O)c2cccc(F)c2)CC1 (centres undefined),0%,-14%,-10,-1.3,4,-1
CCOC(=O)N/C(N)=N/c1nc2ccccc2s1,-21%,1%,-14,-0.7,2,-2
CC(=O)Nc1ccc(-c2ccccc2)s1,8%,?,-9,-2.5,1,4
CCOc1ncccc1C(=O)OCC(=O)c1ccc(F)cc1,0%,0%[15.4 µM],-5,-0.2,0,4
CC1=CN(S(=O)(=O)c2ccc(C)cc2)C[C@@H]2[C@H]3CC[C@H](C3)[C@H]12,-3%,nt,nt,1.3,-2,-4
O=C(O)C(Cc1c[nH]c2ccccc12)NS(=O)(=O)c1ccc(Br)cc1 (centres undefined),4%,24%,-3,3.8,4,4
CC(C)C1N(C(=O)N2CCOCC2)CCN1S(=O)(=O)c1ccccc1 (centres undefined),-4%,-2%[15.4 µM],6,-2.2,0,-4
O=C(c1ccc2c(c1)OCCO2)C1CCN(S(=O)(=O)c2cccc(F)c2)CC1,-4%,-24%,-12,-2.6,-9,-3
CCOC(=O)N1CCN(C(=O)CCCn2c(=O)[nH]c3ccccc3c2=O)CC1,6%,19%,-2,-3.6,3,0
NS(=O)(=O)c1ccc(CCNc2nn3c(-c4cccc(OC(F)(F)F)c4)cnc3s2)cc1,nt,nt,-9,?,-15,-23
COc1ccc(NC(=O)c2ccc(NC(=O)CN(C)CC(=O)Nc3c(C)cccc3C)cc2)cc1,-15%,-23%[15.4 µM],1,-3.0,2,-6
C=CCNC(=O)c1ccc(CN(c2ccc(OCC)cc2)S(=O)(=O)c2ccc(C)cc2)cc1,5%,-39%[inhibitor],-1,-1.5,-1,0
CC(=O)N1CCN(CC(=O)Nc2ccc(SC(F)F)cc2)CC1,9%,-7%[15.4 µM],-4,4.1,16,1
CCCC(=O)Nc1ccccc1NC(=O)CN(C)S(=O)(=O)c1ccccc1,5%,0%,21,-1.2,18,1
Cc1ccc(-c2csc3nc(C)n(-n4cccc4)c(=O)c23)o1,-6%,-6%,-8,-2.2,-5,0
CCNCc1cc(Br)c(OCC(=O)Nc2ccccc2)c(OC)c1,17%,-30%,-29,-2.2,-1,-1
Cc1cccc(NC(=O)Nc2c(C)n(C)n(-c3ccccc3)c2=O)c1,5%,-9%,-2,-5.7,-7,-6
COC(=O)CC1C(=O)NC2CCCCC2N1C(=O)c1ccccc1 (centres undefined),-2%,7%,20,-3.3,7,6
CCn1c(=O)cc(SCC(=O)NCc2ccc(C)o2)c2ccccc21,-7%,-4%,-4,-1.8,-5,-5
COc1cccc2c(=O)c(C(=O)NCc3cccs3)c[nH]c12,-10%,-11%,-41,-2.9,?,-10
Cc1cc(C)c(NC(=S)N(CCCN2CCOCC2)Cc2cccnc2)c(C)c1,4%,17%[15.4 µM],-7,-2.6,9,8
C=CCN(C(=O)CCc1ccccc1OC)c1nc(-c2ccc(S(C)(=O)=O)cc2)cs1,-6%,2%,-12,-4.3,0,-25
O=C(Cc1ccccc1)Nc1ccc(C(=O)NCc2ccccc2)cc1,4%,16%[15.4 µM],-2,-2.6,6,5
CC(=O)C1=C(O)C(=O)N(c2ccc(Br)cc2)C1c1ccc([N+](=O)[O-])cc1 (centres undefined),-8%,2%,-18,-1.2,nt,-7
CCCOc1ccc(N2C(=O)CC(N3CCOCC3)C2=O)cc1 (centres undefined),4%,1%,-7,1.5,12,-1
CN(Cc1ccc(F)cc1)C(=O)c1cc(COc2ccc(-n3cncn3)cc2)on1,?,8%,67*,1.9,0,-3
Cc1nc(C(F)(F)F)ccc1C(=O)N1CCC(C)(C(=O)NS(=O)(=O)C2CC2)C1 (centres undefined),nt,nt,1,-3.7,5,0
CCCCn1c(C)nc2cc(S(=O)(=O)N3CCOCC3)ccc21,-1%,-7%,-5,-2.3,nt,-1
C#CCN(C)Cc1ccccc1,9%,nt,-9,4.0,6,2
O=C(Nc1ccc(F)cc1F)N1CCCN(c2ccc(C(F)(F)F)cn2)CC1,1%,5%[15.4 µM],-4,-0.7,-1,-11
# Next structures follow:
SMILES,gsp antag,gsp agonist,D2 potentiator,D2 agonist,CtBP-E1A inh,Six1-Eya2 blk
O=C(CCS(=O)(=O)c1cccc2nonc12)Nc1ccc(Br)cc1,-14%,-6%[15.4 µM],-13,-6.3,-14,-3
O=c1[nH]c2ccc(S(=O)(=O)N3CCN(c4ccccc4F)CC3)cc2s1,-12%,12%,-6,0.1,-2,-3
Cc1oc(C)c2c(=O)ccc3c(c12)OC(N)=C(C#N)C3c1ccccc1 (centres undefined),-2%,0%,-9,-5.6,-13,-16
c1ccc(-n2ncc3c(NCc4ccccn4)ncnc32)cc1,18%,-10%,-9,12,-6,-3
COc1cccc2sc(=NC(=O)CS(=O)(=O)c3ccccc3)n(C)c12,nt,-1%,-6,-3.8,-4,2
COCCCn1c(SC(C)C(=O)Nc2c(C)n(C)n(-c3ccccc3)c2=O)n[nH]c1=O (centres undefined),8%,-17%,30,1.0,1,2
CCOC(=O)C1=C(C)N(c2ccc(Cl)cc2)C(=O)NC1c1cccc([N+](=O)[O-])c1 (centres undefined),-9%,?,-6,-4.0,-18,-2
N#CCCN(Cc1cccnc1)C(=O)c1ccc(S(=O)(=O)N2CCOCC2)cc1,6%,5%,-1,0.0,1,6
CC(C)C(C)(C#N)NC(=O)CSc1nc2scc(-c3ccco3)c2c(=O)n1-c1ccccc1 (centres undefined),-20%,?,-1,-2.8,-1,-7
CCCOC(=O)Nc1ccc(N2CCCCC2)cc1,12%,-12%,6,-0.4,-15,-24
COc1cc(Cl)c(C)cc1NC(=O)c1ccc2c(c1)OCO2,-5%,8%,-2,0.3,8,0
COc1ccc(N=Nc2c(N)n[nH]c2N)cc1,-1%,-17%[15.4 µM],-12,-1.0,-11,-6
COc1ccccc1NC(=O)COC(=O)COc1cccc2c1OC(C)(C)C2,-2%,15%[15.4 µM],4,-3.6,8,-2
O=C(NC1=NCCS1)c1ccc(N2CCCC2=O)cc1,6%,4%,-2,1.8,9,0
CCOc1ccc(NC(=O)CN(C)C(=O)C2CC2C)cc1OCC (centres undefined),6%,-41%,-17,-6.1,-7,-4
CC(=O)NNC(=S)NC(=O)c1ccccc1,nt,-3%[15.4 µM],-24,1.0,-9,-2
CC(C)N1C(=O)CCC1C(=O)N1CCN(c2ccc(F)cc2)CC1 (centres undefined),5%,-10%,9,-3.2,0,1
O=C(NCCCCc1ccccc1)c1cccc(Br)c1,-11%,13%[15.4 µM],-11,2.0,10,10
CCOC(=O)N1CCN(C(=O)CN(c2cc(C(F)(F)F)ccc2Cl)S(C)(=O)=O)CC1,-1%,-46%[inhibitor],10,5.6,12,8
CCCn1nc(C(=O)N2CCN(S(=O)(=O)c3ccc(C)c(C)c3)CC2)c2ccccc2c1=O,-28%,-66%[inhibitor],3,0.1,-8,-2
COc1ccc(S(=O)(=O)Nc2ccc3c(c2)C(=O)N([C@H](C)CO)C[C@H](C)[C@@H](CN(C)S(C)(=O)=O)O3)cc1,4%,nt,nt,-3.3,5,1

# Taken from above:
# COc1cc(Cl)c(C)cc1NC(=O)c1ccc2c(c1)OCO2 in D2 potentiator is entered as -2
# CC(=O)NNC(=S)NC(=O)c1ccccc1 in gsp agonist is entered as -3%[15.4 µM]
